GALR2 ag: GALR2 receptor agonists, primary screen, cell-based; AID 803, 2007; Galanin receptor type 2 (Homo sapiens), O43603; GALR2-expressing cells, agonist activation read-out; hit rate 0.48% among 140,000; activation, %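 (tested at 5 µM)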;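 active means above mean plus 3 SD of all compounds, about 5% in these data, not always enough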;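 further: 0% = vehicle buffer wells and 100% = reference agonist at full effect; tested in CHO reporter cells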
Target sequence (O43603 whole entry, looked up): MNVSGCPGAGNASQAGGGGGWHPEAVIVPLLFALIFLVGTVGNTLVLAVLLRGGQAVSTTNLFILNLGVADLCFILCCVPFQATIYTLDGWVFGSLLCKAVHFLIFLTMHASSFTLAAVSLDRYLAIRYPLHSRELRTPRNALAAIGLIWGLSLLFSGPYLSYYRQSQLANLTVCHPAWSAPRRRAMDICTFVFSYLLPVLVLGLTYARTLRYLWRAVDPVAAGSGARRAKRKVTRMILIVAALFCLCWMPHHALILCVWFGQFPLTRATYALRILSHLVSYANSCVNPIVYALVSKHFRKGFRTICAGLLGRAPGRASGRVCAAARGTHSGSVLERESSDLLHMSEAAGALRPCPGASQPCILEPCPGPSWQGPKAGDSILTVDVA
PKD1 kinase inh: inhibitors of human PKD1 kinase, biochemical, fluorescence polarization | Serine/threonine-protein kinase D1 (Homo sapiens), Q15139 | PKD1 kinase fluorescence polarization assay | inhibition, %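 (about 10 µM by stock and volumes)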 | hit rate 0.056% among 200,000 | AID 797, 2007;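 active means inhibition of 50% or more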;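 further: controls were vehicle for no effect and a reference inhibitor for full effect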
Insulin prom inh: inhibitors of insulin promoter-driven GFP, primary screen, imaging, TRM-6 cells (human fetal islet line), eGFP reporter, cell count; hit rate 0.9% among 130,000; reporter expression induced with tamoxifen; inhibition, % at 2 µM;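 active means inhibition above the mean plus 3 SD, with well images judged a real hit on visual review, cut at about 60% in these data, passing the limit was not always enough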
HSV replic up: enhancers of HSV replication in host cells, fold increase, host cell viability; maximum fold increase; AID 1956, 2009; hit rate 0.005% among 220,000; HSV replication augmentation in cells;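 active means peak rise of 1.5-fold or more in the series; tested in PC3 cells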;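 further: first round at 10 µM; read as green reporter fluorescence; hits show the peak of a series up to 25 µM; 1 = signal of infected wells without compound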
RGS16-Gao HTS: modulators of RGS16 binding to Galphao, primary screen, biochemical, human proteins, multiplexed bead flow cytometry; AID 1441, 2008; binding response (% of control), % at 10 µM; hit rate 0.38% among 220,000; Regulator of G-protein signaling 16 (Homo sapiens) + Guanine nucleotide-binding protein …; bead-based flow cytometry RGS16-Galphao binding, fluorescence; actives lie on both sides;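 active means below 25% or above 175%, edge rows of some plates excepted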;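 further: Galphao activated by GDP with aluminum fluoride before binding; 100% = wells without compound and 0% = beads without RGS; some results beyond the cut were filed as inactive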
Target sequence (O15492 whole entry, looked up): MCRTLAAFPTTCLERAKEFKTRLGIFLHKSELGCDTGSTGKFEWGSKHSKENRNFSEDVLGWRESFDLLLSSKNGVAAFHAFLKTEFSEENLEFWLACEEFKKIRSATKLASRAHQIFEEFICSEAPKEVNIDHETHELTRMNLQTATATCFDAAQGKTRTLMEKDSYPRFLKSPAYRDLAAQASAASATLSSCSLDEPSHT
Target sequence (P09471 whole entry, looked up): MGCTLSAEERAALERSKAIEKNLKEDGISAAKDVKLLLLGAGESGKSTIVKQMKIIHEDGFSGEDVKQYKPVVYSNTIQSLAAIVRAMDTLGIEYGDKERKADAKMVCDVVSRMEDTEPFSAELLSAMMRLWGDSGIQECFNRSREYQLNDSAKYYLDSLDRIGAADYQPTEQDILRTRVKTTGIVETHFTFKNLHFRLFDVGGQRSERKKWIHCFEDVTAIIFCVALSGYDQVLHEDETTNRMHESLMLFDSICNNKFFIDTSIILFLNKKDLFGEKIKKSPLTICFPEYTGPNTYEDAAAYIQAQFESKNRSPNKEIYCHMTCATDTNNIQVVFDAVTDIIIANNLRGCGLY
Insulin prom inh cell count: further read-out of Insulin prom inh, marked with its call; normalized cell count, %; measured here: cell count, toxicity; reference of the scale not given here;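 cells exposed to compound for 48 h; stained nuclei by imaging scaled within each plate; lower means fewer cells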
HSV replic up primary fold: recorded beside HSV replic up, whose call it bears; fold increase; compound at 10 µM; measured here: primary screen fold increase 10 uM; tested in PC3 cells;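 GFP signal in the first replicate; 1 = infected wells without compound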
Active calls of the source: *; i = inactive; . = not tested or not shown.

SMILES | GALR2 ag | PKD1 kinase inh | Insulin prom inh | Insulin prom inh cell count | HSV replic up | HSV replic up primary fold | RGS16-Gao HTS
Cc1ccc(C(=O)COC(=O)c2cn(-c3ccccc3)nc2-c2ccccc2)cc1[N+](=O)[O-] | 0.1 | 10 | 17 | 96 | i | 0.98 | 96
CC(C)(C)c1ccc(C(=O)NNC(=O)c2ccc(Cl)cc2)cc1 | 0.8 | -8 | -25 | 148 | i | 0.87 | 107
Cc1noc(C(=O)Nc2c(C)nn(Cc3ccccc3)c2C)c1Cl | -2.0 | 8 | . | . | i | 0.96 | 99
Cn1c(CNc2ccccc2)nc2ccccc21 | -0.6 | 4 | 11 | 81 | i | 1.1 | 104
COCCCNC(=S)NCCCNc1nc2cc3c(cc2cc1C#N)OCO3 | 1.5 | -1 | -6 | 129 | i | 0.88 | 98
Cc1nc(-c2ccccc2)sc1-c1nc(-c2ccccc2)ncc1S(=O)(=O)c1ccccc1 | -1.8 | -4 | . | . | . | . | 106
CCCCOc1ccc(NC(=O)C2OC3OC(C)(C)OC3C3OC(C)(C)OC23)cc1 (centres undefined) | -0.1 | -6 | 6 | 143 | i | 0.87 | 103
Cc1cc(=O)n(C)c(=O)n1CC(=O)N1CCCCCC1 | -1.5 | -3 | 43 | 113 | i | 1 | 99
O=C(CCCC(=O)NCc1ccc(F)cc1)NCc1ccc(F)cc1 | . | -13 | . | . | i | 1.1 | 102
Cc1ccc(C(=O)CSc2nnc(-c3cccnc3)n2N)cc1 | -0.9 | -9 | 2 | 103 | i | 0.86 | 100
CCCCN=C1NC(=O)C(CC(=O)NCCc2ccc(OC)cc2)S1 (centres undefined) | 0.3 | 9 | . | . | i | 1.1 | 94
Cc1cc([N+](=O)[O-])nn1CC(=O)N/N=C/c1ccccc1F | . | . | . | . | i | 0.93 | 99

Brought forward from above: 4 entries, followed by the next part.
SMILES | GALR2 ag | PKD1 kinase inh | Insulin prom inh | Insulin prom inh cell count | HSV replic up | HSV replic up primary fold | RGS16-Gao HTS
O=C(CCCC(=O)NCc1ccc(F)cc1)NCc1ccc(F)cc1 | . | -13 | . | . | i | 1.1 | 102
Cc1ccc(C(=O)CSc2nnc(-c3cccnc3)n2N)cc1 | -0.9 | -9 | 2 | 103 | i | 0.86 | 100
CCCCN=C1NC(=O)C(CC(=O)NCCc2ccc(OC)cc2)S1 (centres undefined) | 0.3 | 9 | . | . | i | 1.1 | 94
Cc1cc([N+](=O)[O-])nn1CC(=O)N/N=C/c1ccccc1F | . | . | . | . | i | 0.93 | 99
CCCCCC(=O)NC(=S)Nc1cccc(C(C)=O)c1 | -0.3 | 9 | -14 | 115 | i | 0.98 | 103
CC(C)c1ccc(NC(=S)NC2CC3C=CC2C3)cc1 (centres undefined) | . | . | . | . | i | 0.94 | 98
COC(=O)c1ccccc1S(=O)(=O)N(Cc1cc2cc3c(cc2[nH]c1=O)OCO3)C1CCCCC1 | -0.6 | -9 | 25 | 88 | . | . | 98
Cc1[nH]c2ccccc2c1CC(=O)O | -1.6 | -8 | 50 | 85 | i | 1.2 | 97
Cc1ccc2cc(C(c3nnnn3C3CCCC3)N3CCOCC3)c(=O)[nH]c2c1C (centres undefined) | 1.2 | -8 | . | . | i | 0.92 | 101
COc1ccccc1N1CCN(CCCC(=O)c2ccc(F)cc2)CC1 | -0.9 | -2 | . | . | i | 0.89 | 104
Cc1ccc(NC(=O)CS(=O)Cc2nc(-c3ccc(C)cc3)oc2C)cc1 (centres undefined) | -4.8 | 5 | . | . | i | 0.9 | 101
CC1CN(c2nc3ccccn3c(=O)c2C=O)CC(C)O1 (centres undefined) | . | 0 | . | . | i | 1.1 | 103
CCc1ccc(/C=C(/C#N)C(N)=S)s1 | . | -1 | . | . | i | 0.98 | 105
CCN(CC)C(=S)SC1CCCCN(C(=O)c2ccc(F)cc2)C1=O (centres undefined) | . | 1 | . | . | i | 0.92 | 102
CCOC(=O)Cc1csc(NC(=O)COc2ccccc2OCC)n1 | -1.4 | 1 | 11 | 73 | i | 1 | 111
COc1cccc2c1OC1(C)CC2NC(=O)N1 (centres undefined) | -1.2 | 0 | -7 | 126 | i | 0.84 | 104
COc1cccc(Cn2cnc3c(NS(=O)(=O)c4cc(Cl)ccc4Cl)c(C)c(C)cc32)c1 | 0.6 | -3 | -4 | 86 | i | 0.79 | 101
O=C(Cn1cnc2nc3n(c2c1=O)CCC3)NCc1ccccc1 | -1.8 | -4 | -14 | 165 | i | 0.97 | 106
Cc1cc(NC(=O)COC(=O)CSCc2ccc(Cl)c(Cl)c2)no1 | -2.2 | 1 | . | . | i | 0.98 | 106
CC(c1ccc(Br)cc1)N1CC23C=CC(O2)C(C(=O)O)C3C1=O (centres undefined) | 1.2 | -4 | . | . | i | 1 | 102
Nc1ccc(-n2nnnc2-c2ccco2)cc1 | -1.2 | 15 | . | . | . | . | 107
C=CCNC(=O)c1ccccc1NS(=O)(=O)c1ccc(SC)cc1 | 1.3 | 18 | -26 | 164 | i | 0.92 | 99
CN1CCN(S(=O)(=O)c2ccc(N(C)Cc3cccs3)nc2)CC1 | 0.9 | -10 | . | . | i | 0.85 | 110
CCCCCCCCC(=O)NC(NC(=S)N1CCOCC1)C(Cl)(Cl)Cl (centres undefined) | -0.8 | 6 | -118 | 78 | i | 0.92 | 100
O=C1C2CCCN2C(=O)N1CCN1CCN(CCO)CC1 (centres undefined) | -0.4 | -1 | 33 | 109 | i | 0.99 | 95
CCCCOC(=O)c1ccc(NC(=O)C(=O)NCc2cccnc2)cc1 | . | -1 | 21 | 86 | i | 0.96 | 91
CC(C)COCC(CN(Cc1ccccc1)c1ccccc1)N1CCCC1 (centres undefined) | . | . | . | . | i | 0.65 | 102
Nc1c(-c2ccc(Cl)cc2)cnc2ncnn12 | -1.4 | 1 | . | . | i | 0.94 | 99
Cc1cc(C)c2c(N)c(C(=O)N/N=C/c3ccccc3)sc2n1 | . | . | . | . | i | 0.78 | 98
CCC(NC(=O)Nc1cc(OC)c(OC)c(OC)c1)(C(F)(F)F)C(F)(F)F | -1.7 | -3 | . | . | i | 0.94 | 101
COC(=O)c1ccc(CSc2ccc3nnc(-c4cccc(F)c4)n3n2)o1 | -0.1 | -12 | . | . | i | 0.78 | 92
CC(NC(=O)c1ccc(CS(=O)(=O)Cc2ccccc2F)o1)c1ccc2c(c1)OCCO2 (centres undefined) | -1.3 | -2 | -22 | 100 | i | 0.91 | 99
CCOC(=O)c1snc2c(=O)[nH]cnc12 | -2.5 | 18 | -21 | 75 | i | 0.83 | 103
Cc1ccn2c(CNC(C)CCn3cccn3)c(C(=O)N3CCCCCC3)nc2c1 (centres undefined) | . | 0 | . | . | i | 1.2 | 96
CCN(CC)S(=O)(=O)c1cccc(C(=O)NCCCN2CCOCC2)c1 | -1.7 | 12 | -32 | 121 | i | 0.89 | 82
COc1ccccc1NS(=O)(=O)c1cc(NC(=O)c2ccco2)ccc1N1CCOCC1 | . | 3 | . | . | i | 0.96 | 94
O=C(CCCN1C(=O)/C(=C/c2cccs2)SC1=S)NNC(=O)c1ccccc1O | -1.0 | -5 | . | . | i | 0.71 | 94
CCOC(=O)C1=C(C)N(C)C(C)=C(C(=O)OCC)C1c1ccc(Cl)cc1 | 0.3 | 2 | -103 | 126 | i | 1.1 | 105
CCn1ncc(Br)c1C(=O)Nc1ccn(C23CC4CC(CC(C4)C2)C3)n1 | -0.7 | -11 | 19 | 111 | i | 0.95 | 102
COc1ccc(OC)c(/C=N/NC(=O)c2[nH]nc3c2CCc2ccccc2-3)c1 | 0.8 | 2 | 14 | 94 | i | 0.92 | 103
Cc1ccc(S(=O)(=O)N2CCCC2)cc1S(=O)(=O)N1CCCC1 | 0.9 | 0 | -44 | 144 | i | 0.94 | 96
CC(=O)NC1CC2CCCC(C1)N2CC(=O)N1CCCc2ccccc21 (centres undefined) | -3.3 | 5 | 38 | 91 | i | 0.87 | 130
CN1CCC(Oc2ccccc2Sc2ccccc2)CC1 | -0.4 | -18 | 0 | 111 | i | 0.73 | 103
C=CCN1C(=O)/C(=c2\sc3nc(=O)c(Cc4ccccc4)nn3c2=O)c2ccccc21 | . | . | . | . | i | 0.93 | 99
COC(=O)Nc1ccc(SCC(=O)c2ccc(Cl)cc2)cc1 | . | -7 | . | . | i | 0.88 | 99
CCOc1ccccc1NC(=O)Cn1c(=O)c2ccccc2n(CC)c1=O | -3.2 | 2 | -23 | 132 | i | 0.83 | 113
COc1cc(NC(=O)CCCn2c(=S)[nH]c3ccccc3c2=O)cc(OC)c1OC | . | 0 | 47 | 109 | i | 0.99 | 96
NC(=O)c1ccsc1NC(=O)c1ccco1 | -3.8 | 6 | . | . | i | 0.96 | 104
Cc1c(Cl)c([N+](=O)[O-])nn1CCCC(=O)O | . | -3 | . | . | i | 0.99 | 96
O=C(/C=C/c1ccc(Cl)cc1)NCCSc1ccccc1 | -1.1 | -13 | 26 | 151 | . | . | 101
C/C(=N\Nc1ccc(C(=O)O)cc1)c1ccc(Br)cc1 | . | . | . | . | i | 0.88 | 103
Cc1ccc2nc(SCC(=O)c3ccc(O)cc3O)[nH]c2c1 | . | . | . | . | i | 1 | 106
CN1CCN(NC(=O)c2ccc(Cl)c([N+](=O)[O-])c2)CC1 | -1.6 | 3 | 13 | 63 | i | 0.82 | 110
COc1ccc(NC(=S)N(Cc2ccccn2)Cc2ccccc2Cl)cc1 | . | -3 | -40 | 136 | i | 0.89 | 102
N#CC1=C(N)NC(SCc2ccc(Cl)cc2)=C(C#N)C12CCCCC2 | -1.6 | -2 | -93 | 82 | i | 0.84 | 100
CCOC(=O)N1CCN(C(=O)COc2ccc3c(c2)C(=O)CC(C)(C)O3)CC1 | . | 3 | . | . | i | 0.78 | 105
O=C(COc1cccc2c1CCN(Cc1ccc(Br)cc1)C2=O)N1CCOCC1 | . | -7 | . | . | i | 0.85 | 104
Cc1ccc(O)c(-n2nc3ccccc3n2)c1 | . | -1 | -221 | 120 | i | 0.93 | 108
COCCCNC(=O)c1ccc(CS(=O)(=O)Cc2cccc(C)c2)o1 | -1.3 | 3 | . | . | . | . | 151
Fc1ccc(-c2cc(C(F)(F)F)n3ncnc3n2)cc1 | . | -11 | -235 | 97 | i | 0.95 | 102
COc1ccc(CCNC(=O)/C(C#N)=C/c2cccc(OCc3ccccc3)c2)cc1OC | -0.4 | 6 | 5 | 98 | i | 0.84 | 107
NS(=O)(=O)c1ccc(CCNC(=O)CSc2nc3ccsc3c(=O)n2CCCCC(=O)O)cc1 | . | 0 | 7 | 108 | i | 0.98 | 109
COC(c1ccccc1)c1nnc(CCC(=O)NCCCc2ccccc2)o1 (centres undefined) | . | -5 | . | . | i | 0.99 | 95
C=CC(=O)NCc1ccc(-c2csnn2)cc1 | . | . | . | . | i | 1.1 | 97

Other results
SMILES | GALR2 ag | PKD1 kinase inh | Insulin prom inh | Insulin prom inh cell count | HSV replic up | HSV replic up primary fold | RGS16-Gao HTS
Brc1cccc(-c2nnc(-c3ccccc3)o2)c1 | -2.5 | -10 | 40 | 48 | i | 0.98 | 107
Cc1nc(N2CCOCC2)c(C#N)c2c1COC(C)(C)C2 | -0.5 | -9 | -418 | 55 | i | 0.98 | 102
Cc1cc(F)ccc1NCc1cc2c(cc1[N+](=O)[O-])OCO2 | -0.7 | 1 | 30 | 100 | i | 1 | -41*
CN1CCC(OC(=O)COc2ccc(Br)cc2)CC1 | . | -1 | . | . | i | 1.1 | 101
Cc1ccc(-c2cc(C(=O)NCc3cnn(C)c3)c3cc(Br)ccc3n2)cc1 | -1.2 | -10 | -23 | 86 | i | 0.73 | 101
CCOc1ccc(NCC(=O)Nc2ccc(Cl)cc2C)cc1 | -1.7 | 8 | 10 | 105 | i | 0.85 | 105
CCn1c(C)nc2cc(S(=O)(=O)N3CCCCC3)ccc21 | -0.5 | -3 | -9 | 94 | i | 0.82 | 104
CNC(=S)N(Cc1ccc(OC)cc1)C1CC(=O)N(c2ccc(C(=O)OC)cc2)C1=O (centres undefined) | -0.9 | -2 | . | . | i | 0.87 | 99
CCC1=NN(C(=O)COc2ccccc2C)C(O)(c2ccncc2)C1 (centres undefined) | . | -3 | . | . | i | 1.1 | 102

Record cards (already shown). Order of values: GALR2 ag | PKD1 kinase inh | Insulin prom inh | Insulin prom inh cell count | HSV replic up | HSV replic up primary fold | RGS16-Gao HTS
Shown for `Brc1cccc(-c2nnc(-c3ccccc3)o2)c1` = -2.5 | -10 | 40 | 48 | i | 0.98 | 107
Shown for `CCOc1ccc(NCC(=O)Nc2ccc(Cl)cc2C)cc1` = -1.7 | 8 | 10 | 105 | i | 0.85 | 105

Source: PubChem BioAssay (several laboratories)
